MARV entry inh – blocks Marburg virus binding to or entry into cells; Marburg virus pseudotyped entry inhibition, cell reporter; control for the full effect not named in the record; about a third of the inactives were read at about 46 µM; Potency, µM (titrated, usually from 37.8 µM), without a hit: top-dose activity change, negative = inhibition, most hits filed as inhibitors; actives 1.8% (n = 300,000); AID 540276; active = well fitted inhibition curve with a large enough effect; inconclusive = small, poorly fitted or top-dose-only effect, or effect the other way; inactive = flat fitted curve, though single readings scatter; tested in HEK293 cells; about a fifth of its hits are not listed in these tables; also: % is scaled to controls: 0 for no effect and ±100 for the full control effect; luciferase read-out
Cruzain noTriton – blocks cruzain activity in detergent-free assay. P25779. purified cruzain, Z-FR-AMC fluorescence, no detergent. Potency, µM, without a hit: max response, negative = inhibition, actives largely listed as inhibitors. actives 2.3% (n = 200,000). AID 1476; active = well fitted curve in the direction sought with a large enough effect; inconclusive = small, poorly fitted or top-dose-only effect, or another doubt; inactive = no such curve, though single readings can be large; an effect the other way counts as inactive or inconclusive;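 also: plate controls were enzyme without inhibitor for no effect and buffer without enzyme for full effect; nearly all actives have a fitted effect of over 40% in size; top concentration of the series not given in the record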
Target sequence (P25779 123-467 limits assumed): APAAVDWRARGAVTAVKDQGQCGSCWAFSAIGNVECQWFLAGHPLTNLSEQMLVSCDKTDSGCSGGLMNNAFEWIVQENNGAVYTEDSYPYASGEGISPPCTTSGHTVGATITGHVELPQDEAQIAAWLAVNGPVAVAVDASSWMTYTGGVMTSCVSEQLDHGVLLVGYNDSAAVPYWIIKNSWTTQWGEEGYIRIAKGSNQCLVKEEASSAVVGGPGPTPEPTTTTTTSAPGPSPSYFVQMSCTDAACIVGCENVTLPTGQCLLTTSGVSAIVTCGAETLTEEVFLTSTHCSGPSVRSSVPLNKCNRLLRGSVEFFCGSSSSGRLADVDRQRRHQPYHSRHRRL
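Detergent-free condition (0.00005% Triton X-100) in acetate buffer pH 5.5 with DTT. 1.5 nM enzyme and compound were pre-mixed 15 min, then 2 uM Z-FR-AMC substrate added; reaction progress from fluorescence change between first and third reads (60 s).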
NS1 function inh – blocks influenza NS1 protein function | AID 2326 | actives 0.4% (n = 270,000) | Potency, µM (titrated, usually from 46.1 µM), for inactives: at the highest dose activity, positive = more growth | S. cerevisiae slowed by influenza A NS1, growth recovery by OD600; also: actives are rising curves; nearly all actives have a fitted effect of over 50% in size
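Read-out: OD600 growth recovery of NS1-expressing budding yeast. Cells grown overnight at 30C in -URA glucose medium, washed, resuspended and diluted 1:100 in 2% galactose assay medium, pH 6.0. Same strain lacking NS1 served as positive control.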
StopGo reporter – FMDV 2A StopGo reporter, luciferase signal. human cells with a luciferase reporter of 2A StopGo recoding; control for the full effect not named in the record. Potency, µM (highest dose often 57.9 µM), inactives show at the top dose signal change, negative = less light. actives 1.2% (n = 410,000); active = well fitted falling curve with a large enough effect; inconclusive = small, poorly fitted or top-dose-only effect; inactive = no such curve, though single readings can be large or run the other way; tested in HEK293T cells; also: % is scaled to controls: 0 for no effect and ±100 for the full control effect; nearly all actives have a fitted effect of over 45% in size; luciferase light after 4 h
LASV entry inh – inhibitors of Lassa virus binding or cell entry. Lassa virus pseudotype entry inhibition, cell reporter; control for the full effect not named in the record. Potency, µM (doses to about 37.9 µM), without a hit: at the highest dose activity change, negative = inhibition, hits mostly inhibitors. actives 1.2% (n = 300,000). AID 540256; active means well fitted inhibition curve with a large enough effect; inconclusive means small, poorly fitted or top-dose-only effect, or effect the other way; inactive means flat fitted curve, though single readings scatter; tested in HEK293 cells; also: % is scaled to controls: 0 for no effect and ±100 for the full control effect; nearly all actives have a fitted effect of over 50% in size; luciferase read-out
Cruzain Triton – inhibitors of Trypanosoma cruzi cruzain with detergent | P25779 | purified cruzain, Z-FR-AMC fluorescence, 0.01% Triton | Potency, µM, without a hit: max response, negative = inhibition, actives largely listed as inhibitors | actives 0.43% (n = 200,000) | AID 1478; active = well fitted curve in the direction sought with a large enough effect; inconclusive = small, poorly fitted or top-dose-only effect, or another doubt; inactive = no such curve, though single readings can be large; an effect the other way counts as inactive or inconclusive;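 also: plate controls were neutral wells for no effect and buffer without enzyme for full effect; nearly all actives have a fitted effect of over 40% in size; top concentration of the series not given in the record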
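Detergent-containing arm of a paired screen for aggregation-based inhibition: 0.01% Triton X-100 present. Cruzain at 1.5 nM cleaved 2 uM Z-FR-AMC at pH 5.5 with 5 mM DTT; AMC fluorescence gain over 60 s measured activity.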
SARS PLP yeast – SARS-CoV PLP inhibition in yeast. Potency, µM (series often up to 32.9 µM), without a hit: top-dose activity, positive = growth rescue. S. cerevisiae expressing SARS-CoV PLpro, growth rescue; control for the full effect not named in the record. AID 485353. actives 0.19% (n = 330,000); also: 0% is about no effect; nearly all actives have a fitted effect of over 55% in size; growth read by luminescence after 48 h
RE007 growth inh – less growth of the S. pombe RE007 Vpr strain | S. pombe RE007 Vpr strain, BacTiter-Glo ATP luminescence, 24 h; control for the full effect not named in the record | Potency, µM (titrated, usually from 92.2 µM), without a hit: top-dose activity change, negative = less growth | actives 0.21% (n = 360,000) | AID 651644; active = well fitted falling curve with a large enough effect; inconclusive = small, poorly fitted or top-dose-only effect; inactive = no such curve, though single readings can be large or run the other way;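 also: % is scaled to controls: 0 for no effect and ±100 for the full control effect; nearly all actives have a fitted effect of over 50% in size; the assay follows cell death caused by Vpr and the record does not say whether a fall means rescue or toxicity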
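Fission yeast RE007 carrying one integrated HIV-1 vpr copy, seeded at OD 0.01 in PMG+AL medium with 23 nL pinned compound. Grown 24 h at 30 degrees; viability read by BacTiter-Glo luminescence after 5 min.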
* marks the source's active call; other numbers are inactive results; ? = inconclusive; . = no result given; & = joins results of further samples; [ ] = dose if it differs, or a comment. Unless noted, calls follow the shape of the dose curve; as a rule, active means well fitted rising curve with a large enough effect; inconclusive means small, poorly fitted or top-dose-only effect; inactive means no such curve, though single readings can be large or run the other way. Potency is read from the fitted curve at half-maximal effect. Hits appear at their usual frequency. Share with any hit: about 4.7%.

SMILES	MARV entry inh	Cruzain noTriton	NS1 function inh	StopGo reporter	LASV entry inh	Cruzain Triton	SARS PLP yeast	RE007 growth inh
CN1c2ccsc2/C(=N/Nc2ccccc2)CS1(=O)=O	?	.	.	-17%	?	.	-7%	45µM*
O=C(Nc1cccc(C2OCCCO2)c1)c1cccs1	?	-5%	-8%	7%	5%	2.3%	2%	-20%
O=C(CC1CCS(=O)(=O)C1)Nc1ccc[nH]c1=O (stereo not given)	17%	-10%	-1%	3%	?	8.3%	6%	10%
CCn1c(SCC(=O)N(C)C)nc2cc(S(=O)(=O)N3CCOCC3)ccc21	27%	.	.	-21%	-2%	.	2%	-21%
O=C(c1noc2c1CCCC2)N1CCOCC1	-11%	-9%	-7%	-7%	7%	0.7%	10%	?
Cc1ccc2c(c1)C(c1ccccc1)N(C(=O)c1ccc3c(c1)OCO3)CC(=O)N2 (stereo not given)	-27%[46.1 µM]	.	2%	20%	-3%[46.1 µM]	.	0%	9%
CC(NC(=O)c1ccccc1)C(=O)N/N=C/c1ccccc1 (stereo not given)	-10%[46.1 µM]	.	.	-2%	6%	.	-1%	-8%
COc1ccccc1N1CCN(C(=O)C(F)F)CC1	-1%	-8%	-6%	6%	18%	2.6%	-1%	-5%
CCCC(=O)NC(=S)Nc1ccc(S(=O)(=O)Nc2ccc(OCC)cc2)cc1	?	-10%	-10%	64%[activator]	-2%	-13%	-28%	15%
COc1ccc(C)cc1NC(=O)C1CCCN(S(=O)(=O)c2cccc3cccnc23)C1 (stereo not given)	.	.	-5%	0%	.	.	2%	-4%
COCCNC(=O)C1CCN(c2nc3ccccc3nc2C(F)(F)F)CC1	.	9%	.	0%	1%[46.1 µM]	3.8%	.	.
CC1CCN(C(=O)c2cc(-c3ccc(Cl)cc3)on2)CC1	?	-10%	.	60%[activator]	?	-4.1%	.	.
O=c1cc(O)c2sc(Nc3ccc(Cl)c(F)c3)nc2[nH]1	-12%[46.1 µM]	.	13%	-5%	-10%	.	1%	-13%
Cc1cc(OCc2cc(C(=O)N(C)Cc3nonc3C)no2)cc(C)c1Cl	.	.	-34%	-9%	.	.	-30%	7%
O=C(Nc1cccc(S(=O)(=O)N2CCCCC2)c1)c1ccccc1NS(=O)(=O)c1ccc(F)cc1	?	?	6%	?	-25%	-9.9%	2%	-3%
CC(=O)C(C)Oc1cc(C)cc2oc(=O)c(C)c(C)c12 (stereo not given)	4%	-14%	-23%	-21%	0%	-6.9%	3%	-12%
O=C(NCc1cccs1)C1CCN(S(=O)(=O)c2cccs2)CC1	6%	-5%	2%	-22%	0%	-0.6%	2%	21%
COc1ccccc1CCNC(=O)Cc1cccs1	7%[46.1 µM]	.	-3%	2%	13%	.	-1%	8%
COCCNC(=S)N1CCN(c2cccc(C(F)(F)F)c2)CC1	-5%[46.1 µM]	.	.	0%	-10%	.	-2%	-21%
CCn1cc(CN2CCCC(CNC(=O)COc3ccccc3OC)C2)c(C)n1 (stereo not given)	.	.	13%	-9%	.	.	1%	-4%
COc1cccc(CNC(=O)CCc2ccc(OC)c(OC)c2)c1	18%	.	1%	3%	?	.	1%	2%
COc1cccc(NC(=O)Cn2c(=O)n(-c3ccc(CC(=O)NCC4CCCO4)cc3)c(=O)c3ccccc32)c1 (stereo not given)	-2%[46.1 µM]	?	.	-16%	0%[46.1 µM]	-4.9%	.	.
C/C(=N\NC(=S)NCCc1ccccc1)c1ccc(Cl)cc1	-15%	-8%	23%	-8%	?	-5.9%	8%	-28%
N#Cc1ccsc1NC(=O)CSc1ncn[nH]1	10%	-5%	8%	19%	10%	5.1%	2%	-12%
Cc1noc(C)c1C(=O)N(CC(=O)NC1CCCC1)Cc1ccccc1F	-5%	9%	-7%	.	9%	5.2%	2%	7%
COc1c(F)c(F)c(C(=O)Nc2ccc(N3CCN(Cc4ccccc4)CC3)cc2)c(F)c1F	?	?	6%	?	?	-11%	-2%	-13%
CCOc1ccc(NC2OCC(O)C(O)C2O)c([N+](=O)[O-])c1 (stereo not given)	.	.	-1%	-7%	.	.	0%	-10%
COc1ccc(NC(=O)CCNS(=O)(=O)c2cccc3nsnc23)cc1OC	?	8%&2%	2%	-1%&-10%	12%	-2.5%&-1.8%	?	4%
CCCCNc1nc(Nc2ccc(C)c(Cl)c2)c2cnn(C)c2n1	.	.	20%	?	.	.	-3%	-4%
COc1cccc(CN2CC(C(=O)N(C)CCCC3CCCC3)CCC2=O)c1 (stereo not given)	.	.	-4%	-19%	.	.	5%	12%
Cc1cc(C)cc(OC(C)c2ccnc3nc(/N=C/N(C)C)nn23)c1 (stereo not given)	1%	-1%	-10%	-10%	5%	3.7%	-4%	13%
CC(=O)Nc1cc([N+](=O)[O-])ccc1OCc1ccccc1	0%	.	.	?	10%	.	.	6%
O=C(O)c1ccc(N2CCc3ccccc32)c([N+](=O)[O-])c1	.	.	-2%	-15%	.	.	1%	2%
Cc1ccc(NC(=O)CS(=O)CC(=O)N(c2ccccc2F)C(C)C(=O)NC2CCCC2)cc1 (stereo not given)	?	.	-6%	9%	?	.	-1%	-14%
CCOc1cc(N2CCOCC2)c(OCC)cc1NC(=O)COC(=O)[C@@H]1CCCN1S(=O)(=O)c1ccccc1F	?	.	12%	4%	-3%[46.1 µM]	.	-2%	2%
C#CC(C)(CC)NC(=O)Cn1nnc(-c2ccc(S(C)(=O)=O)cc2)n1 (stereo not given)	-8%	9%	-9%	-3%	1%	-0.7%	0%	2%
CNc1ccccc1-c1nc2ccccc2n(C)c1=O	13%&13%	-11%	0%	-6%	0%	-7.0%	0%	-19%
CCOc1ccc(-n2c(SCC(=O)Nc3ccc(OC)cc3)nc3sc4c(c3c2=O)CCN(C)C4)cc1	?	.	9%	0%	?	.	-10%	-9%
Cc1cccc(C)c1OCC(O)CN1CCC(CN2C(=O)c3cccc4cccc(c34)C2=O)CC1 (stereo not given)	?	8%	13%	22µM*	?	-12%	10%	-31%
Cc1nn(C)c(C(=O)Nc2ccn(Cc3ccccc3F)n2)c1[N+](=O)[O-]	1%	2%	-10%	-11%	-6%[14.3 µM]	1.0%	3%	?
CCN1C(=O)/C(=C2\C=Cc3ccccc3N2CC)SC1=S	-7%	3%	7%	38%[activator]	-5%	-5.8%	-3%	-4%
Cc1cc(C)nc(NC(=O)/C=C/c2ccc(Cl)cc2Cl)c1	?	-4%	-5%	5%	-32%	2.0%	1%	?
O=S(=O)(NCC(c1ccco1)N1CCOCC1)c1ccc(Cl)cc1 (stereo not given)	0%&0%	1%&-1%	13%	-14%&17%	?	-0.6%&-1.5%	-6%	-3%
CCCCOc1ccc(/C=C2/Sc3ccccc3C2=O)cc1	2%	-27%	2%	50%[activator]	?	-3.9%	3%	-3%
Cc1ccc(-n2nc3c(=O)n(CCCC(=O)NCc4ccccc4C)nc(C)c3c2C)cc1	.	7%	-1%	-21%&-11%	15%[46.1 µM]	8.5%	?	-8%
O=C(C1CC1)N1CCN(Cc2ccccc2)CC1	9%[46.1 µM]	.	.	-10%	0%	.	.	-12%
CN1/C(=C\C(=O)CSc2nncn2C)C(C)(C)c2ccccc21	15%	3%	2%	-29%	22%	-7.3%	?	8%
Cc1ccc(-c2ccc(CO)o2)cc1N	-13%[46.1 µM]	.	.	12%	-25%	.	7%	-16%
O=C1CN(C(=S)Nc2ccccc2Cl)CCN1	?	.	.	-15%	-23%[46.1 µM]	.	1%	-3%
CSc1ccc(/C=C/C(=O)Nc2ccccc2)cc1	7.1µM*	.	.	-57%	?	.	-10%	?
CC1CCN(C(=O)C2CCCN(S(=O)(=O)c3cccc4nsnc34)C2)CC1 (stereo not given)	13%[46.1 µM]	.	9%	-10%	14%[46.1 µM]	.	.	16%
COc1cc2c(C(=O)O)c(C)n(-c3ccccc3)c2c2ccccc12	.	.	?	-10%	.	.	-2%	1%
Clc1cccc(CSc2nc(NCCc3ccccc3)c3ccccc3n2)c1	.	9%	.	-20%	-1%[46.1 µM]	-1.0%	.	.
COc1cc(NC(=O)CCc2c(C)[nH]c(=O)c(C#N)c2C)cc(OC)c1	-1%	.	9%	9%	2%	.	-2%	5%
O=C(C1CCCN1S(=O)(=O)c1cccc2nsnc12)N1CCCCC1 (stereo not given)	9%	.	-2%	-9%	19%	.	2%	-10%
Cc1ccccc1-n1c(=O)cc(N2CCc3ccccc3C2)[nH]c1=O	1%	-20%	11%	-8%	5%	1.9%	2%	5%
COc1cc(Cl)c(NC(=O)CCc2nc3cccnc3n2-c2ccccc2)c(OC)c1	-22%[46.1 µM]	?	.	?	2%[46.1 µM]	-3.6%	.	.
CC(=O)c1ccc2c(c1)N(C)c1ccccc1S2	?	-12%	-3%	-6%	7%	-7.6%	24%	?
COc1ccc(NC(=O)NC2CC3CCCC(C2)N3Cc2ccccc2)cc1 (stereo not given)	?	-9%	-1%	-2%	-15%	3.6%	5%	-3%
CCOC(=O)c1nn(-c2ccc(C)cc2)c(=O)cc1OCC(=O)N1CCN(c2ccccc2)CC1	2%	.	.	-24%	17%	.	6%	41%
Carrying on:
SMILES	MARV entry inh	Cruzain noTriton	NS1 function inh	StopGo reporter	LASV entry inh	Cruzain Triton	SARS PLP yeast	RE007 growth inh
Cc1ccc(NC(=O)Cn2c(O)c(N=NC(=O)c3ccncc3)c3ccccc32)cc1	?	.	5%	-13%	0%[46.1 µM]	.	-1%	-14%
CCOC(=O)/C=C1\CN(Cc2cc(OC)c(OC)c(OC)c2)S(=O)(=O)c2ccccc21	.	.	-7%	-26%	.	.	-1%	4%
O=C1CCCC(NCCCCCCNC2=C([N+](=O)[O-])C(=O)CCC2)=C1[N+](=O)[O-]	5%	1%	3%	0%	5%	-1.5%	-3%	-4%
Cc1c(O)c(=O)n(-c2ccccc2)n1C	.	-10%	.	-20%	.	-4.3%	.	-3%[18.4 µM]
